LANA-H2B inh: blocks KSHV LANA binding to histone H2A/H2B; Q9QR71; cell-free LANA-H2A/H2B peptide, fluorescence polarization; inhibition, % (test concentration not listed); 320,000 tested, 0.6% active; AID 2629; in the data active = inhibition mostly above about 10%, no sharp cut-off; inactive = mostly below about 6.7%;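 also: stock transfer was 7.5 nL into about 10 µL; 0% = median of vehicle wells and 100% = median of positive control wells; one replicate is shown; the record names a cut of 25% in any replicate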
UCH37 inh: blocks the human deubiquitinase UCH37. 330,000 tested, 0.33% active. Q9Y5K5. purified proteasome/UCH37, Ub-AMC cleavage fluorescence. inhibition, % (test concentration not listed);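 active = mean of two replicates above 20%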;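 also: 0% = compound-free wells with enzyme and 100% = wells lacking proteasome; stock transfer was 100 nL into about 20 µL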
Target sequence (Q9Y5K5 whole entry, looked up): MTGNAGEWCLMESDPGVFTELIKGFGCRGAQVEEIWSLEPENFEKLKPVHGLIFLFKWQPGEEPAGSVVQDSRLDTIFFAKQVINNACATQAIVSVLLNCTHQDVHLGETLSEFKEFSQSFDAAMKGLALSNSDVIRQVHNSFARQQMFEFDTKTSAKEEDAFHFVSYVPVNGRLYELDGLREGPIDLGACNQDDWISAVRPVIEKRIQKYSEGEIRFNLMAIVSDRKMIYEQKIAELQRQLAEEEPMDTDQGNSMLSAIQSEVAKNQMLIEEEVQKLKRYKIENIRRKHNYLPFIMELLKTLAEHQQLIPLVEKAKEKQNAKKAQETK
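Assay system: Proteasome-bound UCH37. Buffer or medium: pH 7.4 Tris-HCl (50 mM) with ovalbumin, ATP-MgCl2, DTT. Incubation: 30 min preincubation with enzyme, 25 min cleavage at room temperature. Measured by: fluorescence, ex 355 nm, em 460 nm. Read-out basis: percent inhibition. Control set: wells without proteasome as full block, compound-free enzyme plus substrate as uninhibited.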
HNF4A DNA FP: change in binding of human HNF4 alpha to DNA; 360,000 tested, 0.3% active; P41235; HNF4a-FITC DNA binding, fluorescence polarization, 1 h; activity change, % at 10 µM; in the data active = activity change above about 30%, passing the limit was not always enough;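 also: controls were the assay level and a saturating level of protein; the project sought stronger binding though the title names inhibitors; some compounds called inactive have numbers as strong as hits; positive values seem to mean higher polarization but the record does not say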
Target sequence (P41235 whole entry, looked up): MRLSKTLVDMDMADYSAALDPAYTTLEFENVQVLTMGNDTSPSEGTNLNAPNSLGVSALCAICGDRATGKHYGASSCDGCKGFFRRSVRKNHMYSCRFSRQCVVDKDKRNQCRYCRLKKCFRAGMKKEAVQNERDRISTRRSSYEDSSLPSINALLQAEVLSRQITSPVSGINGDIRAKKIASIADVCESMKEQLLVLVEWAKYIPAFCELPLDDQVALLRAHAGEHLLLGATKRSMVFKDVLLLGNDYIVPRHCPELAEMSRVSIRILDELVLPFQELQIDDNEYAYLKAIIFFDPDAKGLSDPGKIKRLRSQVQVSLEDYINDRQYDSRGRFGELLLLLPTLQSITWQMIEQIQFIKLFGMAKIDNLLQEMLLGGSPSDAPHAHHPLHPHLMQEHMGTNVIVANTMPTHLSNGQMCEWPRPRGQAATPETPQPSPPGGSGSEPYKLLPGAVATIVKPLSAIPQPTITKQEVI
Vif A3G: inhibitors of Vif binding to APOBEC3G peptide, primary screen, biochemical, TR-FRET, GST-Vif 1-94, biotin-A3G peptide, dose response retest (AID 1117319) | TR-FRET GST-Vif / biotin-A3G peptide binding; higher % means a stronger effect; test concentration not given here; strong numbers were not always called active | inhibition, %, or IC50 in µM where a hit was titrated | 260,000 tested, 0.57% active;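 active = above the screen mean plus three standard deviations and confirmed in dose response; inconclusive = results disagree or hit not tested in dose response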;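 also: Vif residues 1-94 fused to GST binding biotinylated APOBEC3G peptide 110-148; 0% = full assay without inhibitor and 100% = GST in place of GST-Vif; retest series ran down from 100 µM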
Beta2AR agonist: agonists of human beta-2 adrenergic receptor inducing internalization | Am2.2-beta2AR cells, FAP receptor internalization, flow cytometry; reference of the scale not given here | P07550 | response, % (no concentration beside the values) | AID 504454 | 340,000 tested, 0.43% active;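 active = response above a set limit, near 3 SD of response in nonfluorescent compounds, cut at about 42% in these data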;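 also: stock transfer was 100 nL into about 11 µL; a reference agonist was the positive control; negative values mostly stem from fluorescent compounds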
E coli growth: blocks Escherichia coli growth | AID 1053175 | OD600 absorbance (no concentration beside the values) | 330,000 tested, 0.21% active | OD600, 23 h; active compounds read low;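 active = OD600 absorbance below the run mean of sample wells minus 3.6 SD, in any replicate, cut at about 0.56 in these data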;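 also: stock transfer was 300 nL into about 60 µL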
A1 inh: inhibitors of the anti-apoptotic protein A1, read as caspase activation; MEF A1-2A-BIM cells, Caspase-Glo 3/7 luminescence, 3 h; percent of clofoctol response, vehicle zero; caspase activation, % (no concentration beside the values); 330,000 tested, 0.066% active; AID 2462;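 active = over half of replicate activation scores above 10%, or exactly half above 10 with the replicate mean above 10; inconclusive = replicate mean below 10 yet half the replicates above 10; inactive = over half of replicates below 10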;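 also: wells of about 30 µL received 50 nL stock; many hits fall short of the cut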
Numbers without * were called inactive; ? = inconclusive; · = no result given; & = joins results of further samples.

SMILES | LANA-H2B inh | UCH37 inh | HNF4A DNA FP | Vif A3G | Beta2AR agonist | E coli growth | A1 inh
Cc1cccc(N(CC(=O)NC(C)(C)C)C(=O)CS(=O)CC(=O)Nc2ccc3c(c2)OCO3)c1 (stereo not drawn) | -9.2 | -1.0 | -7.7 | -2% | -4 | 0.61 | 0.6
CCCc1cc(=O)oc2cc(C)cc(OCc3nn[nH]n3)c12 | 0.9 | -49 | 0.5 | 2% | -1 | 0.68 | 0.2
COCCSc1nnc(NC(=O)CCS(=O)(=O)Cc2ccccc2)s1 | -7.4 | -0.9 | 0.7 | · | 1 | 0.67 | 0.4
O=C(COC(=O)c1ccc(F)cc1)NC1CC1 | 0.0 | 0.8 | 0.8 | · | -5 | 0.68 | 0.2
CCN(CC(=O)Nc1ccc(Br)cc1)C(=O)Cc1cccc(F)c1 | 0.1 | 0.6 | 1.3 | · | -7 | 0.65 | -0.3
Cc1nn(C)c(C)c1/C=C/C(=O)c1ccccc1 | 0.9 | -3.2 | 1.1 | 4% | -9 | 0.73 | -0.1
CCN(CC)S(=O)(=O)c1ccc2c(c1)N(CC(=O)Nc1ccc(NC(C)=O)cc1)C(=O)CO2 | -0.3 | 1.9 | -0.1 | 6% | 4 | 0.68 | 0.8
COC(=O)Cn1cnc2c(nnn2-c2cccc(OC)c2)c1=O | -0.2 | 3.8 | -3.0 | -2% | 4 | 0.71 | -0.8
COc1ccc(-n2c(SCC(=O)Nc3ccc(NC(C)=O)cc3)nc3c([nH]c4ccccc43)c2=O)cc1OC | 1.4 | -4.5 | -1.1 | · | -4 | 0.72 | 1.1
Cc1ccccc1OCC(=O)Nc1ccccc1N1CCC(C)CC1 | -2.0 | 1.4 | -0.6 | -6% | -10 | 0.73 | 0.0
COc1cc(NC(=O)Cc2ccccc2)cc(OC)c1 | 2.7 | 1.6 | -2.9 | 76% | 2 | 0.69 | 0.5
COc1ccc2oc(C(=O)OCC(=O)NCCc3ccccc3)c(C)c2c1 | -1.6 | -42 | 3.5 | -4% | -22 | 0.69 | 0.8
N#C/C(=C\C=C\c1ccccc1)C(=O)N1CCCC1 | 0.5 | 3.3 | -0.8 | · | -1 | 0.65 | 1.8
O=C(NCCN1CCCC1)c1ccc2c(c1)N(Cc1cccc(Cl)c1)C(=O)c1ccccc1S2(=O)=O | 2.5 | 1.1 | 3.1 | · | 3 | 0.6 | 0.5
COc1cc(N/C(=N/S(=O)(=O)c2ccccc2)c2ccccc2)ncn1 | 13 | 3.8 | -4.1 | -3% | 4 | 0.68 | -0.9
Cc1cccc(C(=O)Nc2ccc(C(=O)N/N=C/c3cccnc3)cc2)c1 | 6.7 | · | -2.7 | · | 0 | · | 0.8
O=C(NC1CC1)C1=C[C@@H](c2csc3ccccc23)C[C@@H](OCCCCO)O1 | -0.8 | 3.8 | 2.7 | -6% | -15 | · | -0.6
Cc1cccc(CN2CCc3c(OCC(=O)NCc4ccco4)cccc3C2=O)c1 | -4.3 | -0.3 | 2.0 | · | -13 | 0.69 | -0.4
CCOc1ccc(-c2cc(C(=O)NCCCN3CCOCC3)c3ccccc3n2)cc1 | 0.5 | -231 | 6.4 | -5% | 0 | 0.67 | 0.0
COc1ccc(C(=O)OCCN2CCN(C3=NS(=O)(=O)c4ccccc43)CC2)cc1OC | -1.8 | 0.3 | 2.1 | · | 4 | 0.69 | -0.8

Three entries picked at random from those above:
SMILES | LANA-H2B inh | UCH37 inh | HNF4A DNA FP | Vif A3G | Beta2AR agonist | E coli growth | A1 inh
Cc1cccc(C(=O)Nc2ccc(C(=O)N/N=C/c3cccnc3)cc2)c1 | 6.7 | · | -2.7 | · | 0 | · | 0.8
Cc1cccc(CN2CCc3c(OCC(=O)NCc4ccco4)cccc3C2=O)c1 | -4.3 | -0.3 | 2.0 | · | -13 | 0.69 | -0.4
COc1cc(N/C(=N/S(=O)(=O)c2ccccc2)c2ccccc2)ncn1 | 13 | 3.8 | -4.1 | -3% | 4 | 0.68 | -0.9

The listing continues.
SMILES | LANA-H2B inh | UCH37 inh | HNF4A DNA FP | Vif A3G | Beta2AR agonist | E coli growth | A1 inh
O=C(COc1ccc(Br)cc1Cl)NC1CCCCC1 | -1.7 | -0.1 | -1.8 | 4% | 11 | 0.68 | 0.5
C/C(Cn1nnc2ccccc21)=N\NC(=O)c1cccc(Br)c1 | 0.9 | · | 2.7 | 3% | 3 | · | 0.3
N#Cc1ccsc1NC(=O)COC(=O)c1ccc(NC(N)=O)cc1 | 0.8 | 0.9 | 7.8 | ? | -10 | 0.69 | -6.7
C=C(C)CN1C(=O)C2(OCCO2)c2cc(Br)ccc21 | -2.7 | 6.1 | 2.3 | · | 7 | 0.68 | 0.7
COc1cc(NC(=O)Cn2cnc3ccccc3c2=O)c(OC)cc1Cl | 7.0 | 6.3 | 0.8 | 18% | -9 | 0.68 | -0.4
COc1ccc(N(C(=O)C(C)C)S(=O)(=O)c2ccc(Cl)cc2)cc1 | 1.4 | 1.5 | 3.0 | -3% | 2 | 0.7 | -0.2
Cc1cc(Oc2ccc3ccccc3c2)nc(SCC(=O)c2ccccc2)n1 | 8.5 | 2.9 | 1.9 | · | 7 | 0.68 | -0.6
COc1cc(CNC(=O)c2cnc(C)cn2)cc(OC)c1 | 4.2 | 2.4 | -3.4 | 1% | 8 | 0.6 | -0.3
CC(C)(C)NC(=O)CCN(/N=C/c1ccccc1)C1=NS(=O)(=O)c2ccccc21 | 6.4 | · | -51 | -1% | 1 | · | -0.4
COc1ccc(-c2nc3scc(-c4ccc(OC)c(OC)c4)c3c(=O)o2)cc1 | 2.0 | -29 | 13 | 20% | 51* | 0.64 | 0.6
COc1cc(SC)ccc1C(=O)OC1CCOC1=O (stereo not drawn) | 3.9 | 3.9 | -3.1 | 1% | -19 | 0.67 | -0.5
CCOC(=O)C1CCN(C(=O)CN(c2ccc(OC)c(OC)c2)S(=O)(=O)c2ccccc2)CC1 | 1.8 | 5.9 | -0.6 | 1%&0% | -9 | 0.72 | -0.2
N#C/C(=C(/O)CN1CCN(c2ccccc2F)CC1)c1nc(-c2ccccc2)cs1 | 9.9 | 1.8 | 2.7 | 13% | 8 | 0.71 | 0.5
COc1ccc(CNC(=O)COC(=O)CC(NC(N)=O)c2ccc(Cl)cc2)cc1OC (stereo not drawn) | · | 4.3 | 0.9 | -10% | -4 | 0.7 | ·
Nc1ccc2oc(C3CCCCC3)nc2c1 | 12 | 0.9 | -4.8 | -5% | -3 | 0.73 | -1.2
CC1CN(c2ncnc3c2oc2ccccc23)CC(C)O1 (stereo not drawn) | -1.5 | 0.1 | -2.2 | 4% | -14 | 0.75 | 0.1
CCOc1ccccc1NC(=O)CN1CCc2ccccc2C1 | -37 | 6.6 | 1.9 | · | 18 | 0.64 | -0.6
CCN(CC)CCNc1ccc(Cl)cc1[N+](=O)[O-] | -0.7 | 1.4 | -0.6 | · | 1 | 0.72 | 1.0
COc1ccc(N=C2SC(C(=O)Nc3ccc(C(=O)O)cc3)CC(=O)N2Cc2cccs2)cc1 (stereo not drawn) | -2.6 | 1.0 | -0.8 | -11% | 8 | 0.7 | 0.6
S=C(Nc1cccc2ccccc12)NN1CCOCC1 | 7.6 | -1.7 | 1.3 | 3% | 0 | 0.66 | -1.8
CC(NC(=O)Cn1cc(C(F)(F)F)cc(Cl)c1=O)c1ccccc1 (stereo not drawn) | -1.2 | 1.8 | 0.3 | · | -4 | 0.66 | 0.4
Cc1cccc(N(CC(=O)NC(C)(C)C)C(=O)CCC(=O)Nc2ccccn2)c1 | 0.2 | 5.6 | 1.8 | · | -5 | 0.67 | -0.1
COc1cccc(NC(=O)N(C2CCCCC2)C(C)c2cccs2)c1 (stereo not drawn) | -6.1 | 5.3 | 3.0 | -4% | 3 | 0.66 | 0.5
CCCCSCCCNC(=S)Nc1ccccc1C | -3.6 | 0.4 | 0.3 | · | 3 | 0.68 | -0.2
Cc1ccc2c(c1)C(c1ccccc1)N(C(=O)c1ccccc1[N+](=O)[O-])CC(=O)N2 (stereo not drawn) | 0.4 | -0.3 | -3.8 | 0% | 9 | 0.69 | 1.0
COc1ccc(C=O)cc1COc1ccc(F)cc1F | -0.5 | 2.9 | 1.5 | 6% | -3 | 0.7 | 1.1
Cc1ccc(-c2csc(NC(=O)C3=NN(c4ccccc4)C(=O)CC3)n2)cc1 | 8.0 | 2.4 | 3.6 | 24% | -1 | 0.7 | -0.4
C=CCn1c(SCC(=O)Nc2ncc(Cc3ccc(Br)cc3)s2)nnc1-c1ccncc1 | 9.8 | 6.0 | 2.2 | -7% | 1 | 0.7 | -0.9
Cc1nc(SCC(=O)Nc2ccccc2Cl)oc1C | -4.7 | 3.4 | 2.0 | 8% | 6 | 0.73 | 0.5
Cc1ccc(CN2CCN(CC(=O)N/N=C/c3ccc(C)o3)CC2)cc1 | -1.9 | · | 0.3 | -1% | -4 | · | 0.4
CCN(c1ccccc1)S(=O)(=O)c1ccc(OC)c(NC(=O)CN2C(=O)NC(C)(C)C2=O)c1 | -1.8 | 4.1 | -2.0 | -1% | 3 | 0.69 | 0.8
CCCCN(C(=O)C(C)(C)Oc1ccc(Cl)cc1)c1c(N)n(CCC)c(=O)[nH]c1=O | 2.7 | 4.6 | 8.9 | -3% | 7 | 0.7 | 0.1
CCCCN(C(=O)CCn1c(=O)oc2ccccc21)c1ccccc1 | 1.0 | 4.2 | 2.7 | · | -5 | 0.69 | -0.8
CCC1CCCCN1CCCNC(=O)C(C)n1nc(C)c2sc3ccccc3c2c1=O (stereo not drawn) | -4.9 | 3.0 | 1.8 | · | 12 | 0.7 | 0.8
O=C(CCN1C(=O)c2ccccc2S1(=O)=O)Nc1ccc(Cl)cc1 | -2.3 | 5.3 | 1.4 | · | -3 | 0.7 | 0.6
O=C1C2CC=C(Cl)CC2C(=O)N1CN(Cc1ccco1)CN1C(=O)C2CC=C(Cl)CC2C1=O (stereo not drawn) | 3.9 | 1.0 | -0.5 | ? | 0 | 0.69 | -0.9
Nc1nc(NCC2CCCO2)nc(Nc2cccc(F)c2)c1[N+](=O)[O-] (stereo not drawn) | -0.6 | 4.9 | -2.4 | -5% | -6 | 0.69 | -0.2
Cc1ccc(CN(Cc2ccccc2)C(=S)NCC(=O)NCc2cccnc2)o1 | 2.1 | -2.0 | -4.7 | 7% | -5 | 0.71 | -0.7
CCOC(=O)c1cnc(-c2ccccc2)nc1N1CCOCC1 | 6.8 | 0.4 | -2.2 | 1% | -5 | 0.69 | -0.1
Nc1nonc1-n1nnc(C(=O)N/N=C/c2ccccc2Cl)c1COc1ccc(F)cc1 | 3.3 | · | 0.3 | · | 3 | · | 0.4
O=S(=O)(Nc1ncnc2sccc12)c1cccc(F)c1 | -0.8 | -0.3 | 3.2 | 5% | 12 | 0.67 | 0.7
O=C1C2C(C(=O)N1/N=C/c1cccc([N+](=O)[O-])c1)C1C=CC2C12CC2 (stereo not drawn) | 1.6 | · | 0.6 | · | -13 | · | -0.2
CCCC(=O)Nc1ccc(C(=O)Nc2ccc([N+](=O)[O-])cc2OC)cc1 | 7.0 | 2.9 | 1.4 | · | -1 | 0.67 | 0.5
CCCC(=O)Nc1cc(C(=O)N(C)CC(OC)OC)ccc1S(=O)(=O)c1ccc(C)cc1 | 7.1 | 3.2 | -2.9 | -3% | -2 | 0.7 | 0.0
Cc1cc(C)nc(NS(=O)(=O)c2ccc(N=NN(C)C)cc2)n1 | 1.8 | 7.7 | 2.9 | · | 11 | 0.68 | -0.3
CCCCn1c(O)c(C(CC)=Nc2ccc3c(c2)CCC3)c(=O)[nH]c1=O | -6.4 | 6.6 | 0.5 | 7% | -15 | 0.74 | 0.5

Source: PubChem
